# Compound activity (PubChem)
# HPGD inh – blocks human HPGD enzyme activity | purified HPGD, NADH fluorescence kinetic, PGE2 substrate | P15428 | 4.3% of 150,000 active | Potency, µM, without a hit: top-dose activity change, negative = inhibition, actives largely listed as inhibitors; active = well fitted inhibition curve with a large enough effect (not every such curve was filed as active); inconclusive = small, poorly fitted or top-dose-only effect, or another doubt; inactive = no such curve, though single readings can be large or run the other way;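 further: top concentration of the series not given in the record; plate controls included wells without enzyme; inactives centre near -10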
# Target sequence (P15428 whole entry, looked up): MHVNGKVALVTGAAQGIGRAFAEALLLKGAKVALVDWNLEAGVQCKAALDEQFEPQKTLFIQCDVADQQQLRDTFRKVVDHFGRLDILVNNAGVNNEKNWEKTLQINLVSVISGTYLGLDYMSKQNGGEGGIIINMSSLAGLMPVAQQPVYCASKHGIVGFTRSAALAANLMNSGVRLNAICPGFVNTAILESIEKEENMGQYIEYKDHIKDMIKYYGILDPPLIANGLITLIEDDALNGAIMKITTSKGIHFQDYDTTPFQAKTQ
#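 20 nM HPGD preincubated 15 min at room temperature with compound in 50 mM Tris-HCl pH 8, 0.01% Tween 20. Started with 1 mM NAD+ and 30 uM prostaglandin E2; NADH fluorescence (360/450 nm) read 5 times over 30-s intervals, last minus first.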
# Starred values were filed as active, the others as inactive; ? = inconclusive; & = joins results of further samples. On the % scale 0 is the no-effect control and ±100 the full control effect; potency means the concentration at half of the fitted maximal effect.
HPGD inh	mol
-25%	O=C(N/N=C/c1ccccc1Cl)c1[nH]c2ccc(Br)cc2c1-c1ccccc1
-15%	CCCCCC(C)NC(=S)NC(=O)c1cc(S(=O)(=O)N2CCOCC2)ccc1C (stereo unspecified)
16µM*	CCOC(=O)C1CCCN(C(=O)c2cc3nc(-c4cccc(OC)c4)cc(C(F)(F)F)n3n2)C1 (stereo unspecified)
-6%	Cc1ccc(C(C#N)N2CCOCC2)cc1 (stereo unspecified)
25µM*	COc1ccc(C(=O)N2CCCC(c3nc(-c4cc(OC)c(OC)c(OC)c4)no3)C2)cc1 (stereo unspecified)
-2%	O=C(COc1ccc(F)cc1)N1c2ccccc2CCc2ccccc21
-15%	COC(=O)[C@@]1(Cc2ccc(F)cc2)[C@H]2c3cc(C(=O)N4CCCC4)n(Cc4ccc(C)c(F)c4F)c3C[C@H]2CN1C(=O)c1ccccc1
-22%&-4%	O=C(O)CCSc1ccc2ccccc2n1
-2%	CC1(C(=O)NC2CCCC2)CCC(=O)N1CCC1=CCCCC1 (stereo unspecified)
32µM*	Cc1cc(=O)[nH]c(SCC(=O)Nc2nnc(CC(C)C)s2)n1
-14%	OC(COc1ccccc1)CN1CCOCC1 (stereo unspecified)
-6%	CCC(=O)OCC(=O)[C@@]1(OC(=O)CC)[C@@H](C)C[C@H]2[C@@H]3CCC4=CC(=O)C=C[C@]4(C)[C@@]3(F)[C@@H](O)C[C@@]21C
-2%	OB(O)c1ccc(Cl)s1
-10%	CN=C(Nc1ccc(C(=O)OC)cc1)SC1CC(=O)N(c2ccccc2F)C1=O (stereo unspecified)
?	O=C(COC(=O)c1ccccc1Nc1ccccc1)Nc1ccccc1
-12%	Cc1csc(NC(=O)CSc2ccc3nnc(CCNS(=O)(=O)c4ccccc4)n3n2)n1
?	CCOc1ccc2c(c1)C(C)=CC(C)(C)N2C(=O)Nc1ccccc1F
-4%	O=C(NCc1cccnc1)Nc1ccc(F)cc1F
-18%	COc1ccc(S(=O)(=O)N2CCC(C(=O)c3ccc4c(c3)OCCO4)CC2)cc1
-16%	O=C(Nc1ccc(N2CCOCC2)cc1)c1cccnc1
-7%	CN(C)C(=O)[C@H]1C[C@@H]1[C@H](NC(=O)OCc1ccccc1)c1ccccc1
-11%	COc1ccc(CNC(=O)COC(=O)c2cnccn2)cc1
-17%	CN(C)C(=O)CSc1nc(-c2ccccc2)nc2c1CCCC2
-11%	O=C(OC(C(=O)NCC1CCCO1)c1ccc(F)cc1)c1cccs1 (stereo unspecified)
-13%	O=C(/C=C/c1ccccc1)NC(=S)NNC(=O)c1ccco1
?	O=C(O)c1ccc(N/N=C/c2ccc3ncccc3c2)cc1
-2%	CCC(C)C(NC(=O)OC(C)(C)C)C(=O)NCc1ccco1 (stereo unspecified)
-11%	O=C1CC(N2CCN(c3ccccc3Cl)CC2)C(=O)N1c1cccc(F)c1 (stereo unspecified)
?	COC(=O)Cn1c(=NC(=O)c2nc3ccccc3s2)sc2cc(S(N)(=O)=O)ccc21
-17%	CC(=O)c1cc(F)c(N2CCN(C(=O)C(C)(C)C)CC2)cc1C
?	Cc1nc(NC(=O)c2ccccc2)sc1-c1csc(NCc2ccccc2)n1
-9%	CCN1CCN(Cc2ccc3c(c2)Cc2ccccc2-3)CC1
?	COc1cccc(-c2cc(C(F)(F)F)n3ncc(C(=O)NCC4CCCO4)c3n2)c1 (stereo unspecified)
-17%	CCCNC(=O)C(Cc1ccccc1)NS(=O)(=O)c1cccc2nsnc12 (stereo unspecified)
?	COc1ccccc1CCn1c(=O)c(-c2cc(F)cc(F)c2)nc2cncnc21
6%	C=CCNc1nc2c(c(=O)n(C)c(=O)n2C)n1Cc1ccc(F)cc1
0%	O=C(CNC(=S)N(CCCN1CCOCC1)Cc1cccs1)NCCN1CCOCC1
-8%	O=C1c2cccnc2C(Nc2ccc(S(=O)(=O)N3CCCCC3)cc2)N1Cc1ccccc1 (stereo unspecified)
-12%	O=C(O)c1ccc(COc2c(F)c(F)cc(F)c2F)cc1
-2%	CCNC(=O)CC1C(=O)N(c2ccccc2)C(=O)N1Cc1ccc(OC)cc1 (stereo unspecified)
1%	O=C(NCc1ccccc1)C(c1ccncc1)N(C(=O)c1csnn1)C1CC1 (stereo unspecified)
-12%	Cc1ccc(C(=O)Cn2nnc3c(sc4nc5c(c(-c6ccccc6)c43)CCC5)c2=O)cc1
-8%	CCCN(CCC)C(=O)C1c2ccccc2Oc2ccccc21
1%	O=C(NCc1cccs1)c1ccncc1
1%	CCCC(=O)Nc1cccc(Oc2nc(C)cc(C)c2C#N)c1
-2%	O=C(CSc1nc2ccc(Cl)cc2[nH]1)N1CCN(C(=O)c2ccco2)CC1
-14%	COc1ccc(-n2c(=O)c3ccccc3c3ccccc3c2=O)cc1
-5%	COc1ccc(C2c3c(oc4ccccc4c3=O)C(=O)N2c2ccccn2)cc1 (stereo unspecified)
0%	CC#CCN1C(=O)N[C@@H](c2ccccc2)C(C(=O)OC)=C1C
?	O=C1CCNc2ccc(-c3ccccc3)cc21

# Other records follow.
HPGD inh	mol
-25%	COc1ccc(-c2cc(=O)[nH]c(=O)[nH]2)cc1
-3%	CC(=O)O[C@]1(C)N=NC2(CCCCC2)O1
-17%	COc1ccc([C@@H]2Sc3cc(OC)ccc3N(CCN(C(C)C)C(C)C)C(=O)[C@H]2OC(C)=O)cc1
-5%	CC(C)n1nnnc1SCC(=O)NCCc1ccccc1
-8%	CCN(C1CCCCC1)S(=O)(=O)c1ccc(S(=O)(=O)NCCc2ccncc2)cc1
-3%	CC(=O)Nc1ccc(S(=O)(=O)NCc2ccccn2)cc1
-14%	CCN(CC)c1cccc(OCC(=O)N(C)CCC#N)c1
-13%	O=C1CSC(c2ccc3c(c2)OCO3)N1c1ccc(Oc2ccccc2)cc1 (stereo unspecified)
-19%	O=C(NC(=S)N(CCc1ccccc1)CCc1ccccc1)c1ccco1
-4%	Cc1ccc(NC(=O)C2CCN(C(=O)NC3CCCCC3)CC2)cc1Cl
-9%	COc1ccc(C(C)C(=O)c2ccc(O)cc2O)cc1 (stereo unspecified)
-10%	CCOC(=O)N/N=C/c1ccc(F)cc1
-2%	O=C(c1ccc(NC2=NC3CS(=O)(=O)CC3S2)cc1)N1CCN(C(=O)c2ccco2)CC1 (stereo unspecified)
-16%	Cn1cc(CN2CCc3ccccc3C2)c2ccccc21
14µM*	CCCCC(=O)N1CCN(c2ccc(OC)cc2[N+](=O)[O-])CC1
-5%	O=C(Nc1ccc(F)cc1F)NC1CC(=O)N(Cc2ccccc2)C1 (stereo unspecified)
-8%	O=C(Cn1nc(C(F)(F)F)cc1C1CC1)Nc1ccccc1F
?	CCOC(=O)N1CCC(NC(=O)CSCc2nc(-c3ccc(OC)c(OC)c3)oc2C)CC1
-3%	C=CCSC1=C(C#N)C(c2ccccc2OCC)C(C#N)C(=O)N1 (stereo unspecified)
-10%	CCCc1nc(N)sc1C(=O)OCC
?	COCCN(CCOC)c1nc(C)nc2c1nc(-c1ccccc1)n2CCN1CCCC1
-4%	Nc1c(C(=O)c2ccc(F)cc2)oc2ccccc12
?	CCOC(=O)c1cc(-c2ccccc2)sc1NC(=O)C(C)(C)C
0%	CSc1cccc(NC(=O)C2CCCN2S(=O)(=O)c2ccc3c(c2)CCC(=O)N3)c1 (stereo unspecified)
-9%	COc1ccc(C)cc1S(=O)(=O)N1CCCCC1
-10%	CCc1ccc(NC(=O)CSc2nnc(CC)c(CC)n2)cc1
-7%	CCOc1ccc(N=c2cc(-c3ccc(OC)cc3)oc3ccccc23)cc1
-14%	Fc1ccc(NC(=S)Nc2ccc(F)c(Cl)c2)cc1Cl
-3%	Cc1ccc(NC(NC(=O)c2ccccc2[N+](=O)[O-])C(Cl)(Cl)Cl)cc1 (stereo unspecified)
?	CCOCCNC(=O)c1ccc2c3c(cccc13)CC2
2%	Cc1cc(NCC(C)C)n2ncnc2n1
-8%	COC(=O)C1(C#N)C(c2ccccc2)C1(C(=O)OC)C(=O)OC (stereo unspecified)
-19%	c1ccc2c(c1)oc1c(Nc3ccc4c(c3)OCCO4)ncnc12
-4%	O=S(=O)(Nc1cccnc1Cl)c1ccc2c(c1)OCCO2
?	CCN(CC)C(=O)CSc1nnc(-c2ccc(S(=O)(=O)N3CCCC3)cc2)o1
-13%	Cc1nnc(NC(=O)CSc2nnc(-c3ccc(S(=O)(=O)N4CCCC4)cc3)n2C)s1
-11%	CNC1=CN=C(c2ccccc2)c2cc(Cl)ccc2N1
-15%	CC#CCCCC(=O)Nc1cccc(C(=O)O)c1
-4%	COC(=O)C1(C(=O)OC)NOC2C(=O)N(c3ccccc3)C(=O)C21 (stereo unspecified)
-14%	Cc1ccc(Nc2nc(N)nc(CSC(=S)N3CCOCC3)n2)cc1
-8%	COc1ccccc1CC(NC(C)=O)C(=O)N1CCN(C(=O)Nc2ccccc2Cl)CC1 (stereo unspecified)
-9%	O=C(c1cn(-c2ccccc2)nc1-c1ccc(Cl)cc1)N1CCOCC1
?	Cc1nc2cc(C(=O)OCC(=O)NC(C)C(C)C)ccc2n1-c1ccccc1 (stereo unspecified)
?	CCC(Oc1ccccc1)C(=O)Nc1ccsc1C(=O)OC (stereo unspecified)
1%	O=C(c1ccco1)N1CCN(C(=O)C2CCCc3c2[nH]c2ccc(Cl)cc32)CC1 (stereo unspecified)
-9%	O=C(COC(=O)c1ccc(Cl)c(Cl)c1)Nc1cccnc1Cl
7.1µM*	CC(C)(C=O)C1=CC(=O)c2ccccc2C1=O
-11%	CCC1Oc2nc(SC)nnc2-c2ccccc2N1C(=O)c1ccccc1 (stereo unspecified)
-4%	COc1ccc(Cn2cnc3c(NS(C)(=O)=O)c(C)c(C)cc32)cc1
-6%	COc1ccc(NC(=O)c2ccc(-n3nc(C)c[n+]3[O-])cc2)cc1

# Next part.
HPGD inh	mol
-18%	COc1ccccc1C(=O)n1nc(-c2ccccc2)nc1N
-2%	OC(COCc1cccs1)CN1CCN(c2ccccc2Cl)CC1 (stereo unspecified)
-2%	C=CC[C@H]1CC(Cc2ccccc2)=C[C@H](CC=C)N1
-7%	CC(=O)Nc1cccc(/C(C)=N\NC(=O)c2ccc(Cn3nc([N+](=O)[O-])c(Cl)c3C)o2)c1
-5%	O=C(C1CN(S(=O)(=O)c2ccccc2)CCN1S(=O)(=O)c1ccccc1)N1CCCCCC1 (stereo unspecified)
?	O=S(=O)(Nc1ccc2c(c1)OCO2)c1ccccc1
-6%	CCOC(=O)c1cc(CC)sc1NC(=O)CCC(=O)O
-4%	CCOC(=O)c1ccc(NC(=O)c2nn(C)cc2Br)cc1
-6%	COc1ccc(Cc2nc(-c3ccccn3)no2)cc1
?	CC(=O)Oc1ccc(NC(=O)CCC2CCCCC2)c(C(=O)O)c1
-12%	CCOc1ccc(/C=c2\sc3nc(-c4ccco4)nn3c2=O)cc1OCC
-28%	Cc1cc(C)c2c(CN3CCN(Cc4ccc5c(c4)OCO5)CC3)cc(=O)oc2c1
?	CC1(C)CC(=O)C(/C=N/c2ncccc2C(=O)O)=C(O)C1
0%	O=C(Nc1ccccc1C(=O)NCC1CCCO1)c1ccccc1 (stereo unspecified)
-13%	Cc1cccc([C@H]2[C@@H]3C=CCC[C@@]3(C)C(=O)N2Cc2ccccc2)c1
-11%	CCN(CC)S(=O)(=O)c1ccc2c(c1)nc(CCC(=O)Nc1ccc3c(c1)OCO3)n2CC
-5%	O=C(NCC(=O)N1CCCC1C(=O)O)OC1CCCCC1 (stereo unspecified)
-13%	COC(=O)c1ccc(CSc2nc(-c3ccco3)cc(C(F)(F)F)n2)o1
-5%	Cc1ccc(C(=O)O/N=C2\CC3CCC2(C)C3(C)C)cc1 (stereo unspecified)
1%	COc1cccc(N2CCN(C3CC(=O)N(c4cccc(Cl)c4)C3=O)CC2)c1 (stereo unspecified)
3%	Cc1cc(=O)cc(C)n1-c1ccccc1N1CCOCC1
-10%	O=S(=O)(NCc1csc(-c2cccnc2)n1)c1ccc(Cl)s1
-2%	C=CCNC(=O)C1CCN(S(C)(=O)=O)CC1

# A different layout for some results above:
SMILES,HPGD inh
CCOC(=O)c1cc(CC)sc1NC(=O)CCC(=O)O,-6%
CCOC(=O)c1ccc(NC(=O)c2nn(C)cc2Br)cc1,-4%
COc1ccc(Cc2nc(-c3ccccn3)no2)cc1,-6%
CC(=O)Oc1ccc(NC(=O)CCC2CCCCC2)c(C(=O)O)c1,?
CCOc1ccc(/C=c2\sc3nc(-c4ccco4)nn3c2=O)cc1OCC,-12%
Cc1cc(C)c2c(CN3CCN(Cc4ccc5c(c4)OCO5)CC3)cc(=O)oc2c1,-28%
CC1(C)CC(=O)C(/C=N/c2ncccc2C(=O)O)=C(O)C1,?
O=C(Nc1ccccc1C(=O)NCC1CCCO1)c1ccccc1 (stereo unspecified),0%
Cc1cccc([C@H]2[C@@H]3C=CCC[C@@]3(C)C(=O)N2Cc2ccccc2)c1,-13%
CCN(CC)S(=O)(=O)c1ccc2c(c1)nc(CCC(=O)Nc1ccc3c(c1)OCO3)n2CC,-11%
O=C(NCC(=O)N1CCCC1C(=O)O)OC1CCCCC1 (stereo unspecified),-5%
COC(=O)c1ccc(CSc2nc(-c3ccco3)cc(C(F)(F)F)n2)o1,-13%
Cc1ccc(C(=O)O/N=C2\CC3CCC2(C)C3(C)C)cc1 (stereo unspecified),-5%
COc1cccc(N2CCN(C3CC(=O)N(c4cccc(Cl)c4)C3=O)CC2)c1 (stereo unspecified),1%
Cc1cc(=O)cc(C)n1-c1ccccc1N1CCOCC1,3%
O=S(=O)(NCc1csc(-c2cccnc2)n1)c1ccc(Cl)s1,-10%
C=CCNC(=O)C1CCN(S(C)(=O)=O)CC1,-2%

# 3 entries out of the list above, arranged by their value in HPGD inh, lowest first.
HPGD inh	mol
-11%	CCN(CC)S(=O)(=O)c1ccc2c(c1)nc(CCC(=O)Nc1ccc3c(c1)OCO3)n2CC
-5%	O=C(NCC(=O)N1CCCC1C(=O)O)OC1CCCCC1 (stereo unspecified)
-2%	C=CCNC(=O)C1CCN(S(C)(=O)=O)CC1

# Not all compounds are listed, so the mix of outcomes need not match the whole.
